# Screening data: PubChem BioAssay, several laboratories
# Ecoli rRNA inh – inhibits bacterial ribosomal RNA function over humanized ribosomes; E. coli WT GFP vs humanized-ribosome RFP mutants, fluorescence, 24 h; hits give low values; DMSO median 0, no signal -100; GFP signal change (wild-type ribosome), % (concentration not given with the values); 350,000 tested, 1.6% active; AID 720706;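 active means significant combined selectivity score with lowered wild-type GFP, culture density cut under 30%, mutant RFP and density less affected; inactive means any of these conditions unmet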; further: one replicate is shown; some compounds called inactive have numbers as strong as hits
# E coli growth – blocks Escherichia coli growth | 330,000 tested, 0.21% active | OD600, 23 h; hits give low values | AID 1053175 | OD600 absorbance (concentration not given with the values);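 active means OD600 absorbance below the run mean of sample wells minus 3.6 SD, in any replicate, cut at about 0.56 in these data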;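 further: stock transfer was 300 nL into about 60 µL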
# Ecoli rRNA inh OD600 – further read-out of Ecoli rRNA inh, marked with its call; OD600 change, %; measured here: OD600 growth;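 optical density of the mix in the first replicate; 0 = DMSO median and -100 = no signal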
# Ecoli rRNA inh RFP – further read-out of Ecoli rRNA inh, marked with its call; RFP signal change, %; measured here: RFP humanized mutant strains;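 first replicate; 0 = DMSO median and -100 = no signal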
# Numbers without * were called inactive; x = no result given; & = joins results of further samples. Only part of the results is shown; the hit share may differ from the screen's.
# Second line of a record: Ecoli rRNA inh	Ecoli rRNA inh OD600	Ecoli rRNA inh RFP	E coli growth
> C[C@H]1CN([C@@H](C)CO)C(=O)c2cc(-c3ccc(F)cc3)cnc2O[C@@H]1CN(C)C(=O)Nc1ccc(F)cc1
 : -1.5	6.7	-0.7	x
> C[C@H](CO)N1C[C@H](C)[C@@H](CN(C)CC2CCCC2)Oc2ncc(C#Cc3ccccn3)cc2C1=O
 : -0.6	0.7	-0.6	x
> C[C@H]1CN(C)C(=O)c2cc(N)ccc2O[C@@H]1CN(C)S(C)(=O)=O
 : -1.9	-4.2	0.4	x
> C[C@@H]1CN([C@H](C)CO)C(=O)c2cc(NS(=O)(=O)c3ccc(Cl)cc3)ccc2O[C@@H]1CN(C)Cc1ccc(C(F)(F)F)cc1
 : -1.6	-16.6	0.0	x
> COCC(=O)Nc1ccc2c(c1)OC[C@@H](C)N(C(=O)C1CCCC1)C[C@@H](C)[C@@H](OC)CN(C)C2=O
 : -2.4	-1.2	-0.5	x
> COc1cc(CN2CC3(CN(C(C)=O)C3)c3c([nH]c4cc(OC)ccc34)[C@@H]2CO)cc(OC)c1
 : 1.5	4.1	1.5	x
> C[C@H](CO)N1C[C@H](C)[C@H](CN(C)C)Oc2cc(C3=CCCCC3)ccc2S1(=O)=O
 : 2.2	8.8	-3.3	x
> CO[C@@H]1CN(C)C(=O)c2ccc(NS(=O)(=O)CC(F)(F)F)cc2OC[C@H](C)N(C(=O)NC(C)C)C[C@@H]1C
 : 0.2	6.0	-2.1	x
> CC(C)NC(=O)Nc1ccc2c(c1)C(=O)N([C@@H](C)CO)C[C@@H](C)[C@@H](CN(C)C(=O)Cc1ccccc1)OCCCC[C@H](C)O2
 : 0.1	5.9	1.1	x
> C[C@H](CO)N1C[C@H](C)[C@H](CN(C)C(=O)C2CC2)Oc2ncc(-c3ccncc3)cc2C1=O
 : 5.0	-6.1	-3.1	x
> Cc1nn(C)cc1NC(=O)C[C@@H]1CC[C@H]2[C@H](COc3ccc(NC(=O)C4CCC4)cc3C(=O)N2C)O1
 : -2.2	-6.5	0.5	x
> CC(C)C#Cc1ccc2c(c1)O[C@H](CN(C)C(=O)C1CCC1)[C@H](C)CN([C@H](C)CO)S2(=O)=O
 : -4.6	-1.7	1.8	x
> C[C@@H]1CN([C@@H](C)CO)C(=O)CCCn2cc(nn2)CO[C@H]1CN(C)C
 : 2.3	2.8	0.6	x
> COc1ccc2c3c([nH]c2c1)[C@@H](CO)N(C(=O)c1ccccc1)CC31CN(S(=O)(=O)c2cccs2)C1
 : -6.1	-31.4	5.9	x
> CO[C@H]1CN(C)C(=O)c2cc(NS(=O)(=O)c3cccc(F)c3)ccc2OC[C@@H](C)NC[C@H]1C
 : 4.3	1.0	-1.3	x
> CCS(=O)(=O)Nc1ccc2c(c1)C(=O)N(C)C[C@@H](OC)[C@@H](C)CN(CC1CCCC1)[C@H](C)CO2
 : 2.3	6.2	-0.6	x
> CC(=O)NC[C@H]1[C@H](c2ccc(C3=CCCC3)cc2)[C@@H](CO)N1Cc1cccnc1
 : 1.5	1.9	2.5	x
> COC(=O)N(C)C[C@@H]1OCc2cn(nn2)CCCC(=O)N([C@H](C)CO)C[C@@H]1C
 : 1.2	-1.3	-1.1	x
> CC(=O)N1[C@H](CO)[C@@H](c2ccc(-c3cccc(F)c3)cc2)[C@H]1CNC(=O)C1CC1
 : -2.5	10.2	3.0	x
> CCC(=O)N(C[C@@H]1N[C@H](CO)[C@@H]1c1ccc(C#C[C@@H](C)O)cc1)C1CCCCC1
 : -0.1	1.9	-2.4	x
> CNC[C@@H]1Oc2ccccc2CC(=O)N(C)C[C@H]1C
 : 2.1	5.3	-2.8	x
> N#Cc1cccc(-c2ccc3c(c2)[C@H]2[C@H](CCN2C(=O)c2ccccc2F)[C@H](CO)N3)c1
 : -25.5*	-18.5*	-1.4*	x
> O=C(C[C@@H]1C=C[C@H](NC(=O)c2cccnc2)[C@@H](CO)O1)NCCN1CCCCC1
 : 3.5	9.4	0.7	x
> C[C@H](CO)N1C[C@H](C)[C@H](CN(C)C(=O)CCC(F)(F)F)OCCCC[C@H](C)Oc2ccc(NS(C)(=O)=O)cc2C1=O
 : -0.9	3.4	-0.3	x
> COCC(=O)Nc1ccc2c(c1)OC[C@H](C)N(Cc1cncnc1)C[C@H](C)[C@H](OC)CN(C)C2=O
 : 2.2	3.0	-2.9	x
> Cc1noc(C)c1NC(=O)N1C[C@@H](O)COC[C@H]2O[C@H](CC(=O)N[C@H]3CCN(Cc4ccccc4)C3)CC[C@@H]21
 : 1.3	17.8	0.8	x
> CCCN1C[C@H](C)[C@H](OC)CN(C)C(=O)c2cc(NC(=O)COC)ccc2OC[C@H]1C
 : 1.4	2.3	1.7	x
> COCC(=O)NC[C@H]1N[C@H](CO)[C@@H]1c1ccc(C2=CCCCC2)cc1
 : 0.2	-1.5	0.0	x
> C[C@H](CO)N1C[C@H](C)[C@H](CN(C)S(=O)(=O)c2cn(C)cn2)Oc2c(NS(=O)(=O)c3ccc(Cl)cc3)cccc2C1=O
 : -4.0	-8.1	-1.4	x
> CN1c2ccc(C#Cc3ccccc3)cc2[C@H]2[C@H](CCN2S(=O)(=O)c2ccccc2F)[C@H]1CO
 : 5.0	15.6	1.9	x

# Single entries from above.
# Ecoli rRNA inh RFP with `C[C@@H]1CN([C@H](C)CO)C(=O)c2cc(NS(=O)(=O)c3ccc(Cl)cc3)ccc2O[C@@H]1CN(C)Cc1ccc(C(F)(F)F)cc1` is entered as 0.0
# Ecoli rRNA inh with `CO[C@@H]1CN(C)C(=O)c2ccc(NS(=O)(=O)CC(F)(F)F)cc2OC[C@H](C)N(C(=O)NC(C)C)C[C@@H]1C` is entered as 0.2
# Ecoli rRNA inh with `CC(=O)N1[C@H](CO)[C@@H](c2ccc(-c3cccc(F)c3)cc2)[C@H]1CNC(=O)C1CC1` is entered as -2.5
# Ecoli rRNA inh with `C[C@H](CO)N1C[C@H](C)[C@@H](CN(C)CC2CCCC2)Oc2ncc(C#Cc3ccccn3)cc2C1=O` is entered as -0.6
# Ecoli rRNA inh OD600 with `CCC(=O)N(C[C@@H]1N[C@H](CO)[C@@H]1c1ccc(C#C[C@@H](C)O)cc1)C1CCCCC1` is entered as 1.9

# (list continues)
# Second line of a record: Ecoli rRNA inh	Ecoli rRNA inh OD600	Ecoli rRNA inh RFP	E coli growth
> CNC[C@@H]1OCCCC[C@@H](C)Oc2ccc(NC(=O)c3ccccc3)cc2C(=O)N([C@@H](C)CO)C[C@H]1C
 : 6.8	1.7	-0.9	x
> CCC(=O)Nc1ccc2c(c1)OC[C@@H](C)N(CC1CCCCC1)C[C@H](C)[C@H](OC)CN(C)C2=O
 : 3.7	3.0	-1.7	x
> O=C(C[C@@H]1CC[C@@H](NC(=O)Cc2ccccn2)[C@H](CO)O1)NCCc1ccncc1
 : 4.6	4.2	0.1	x
> O=C(CCN1CCCCC1)NCC[C@@H]1CC[C@H](NS(=O)(=O)c2cccc(Cl)c2)[C@@H](CO)O1
 : 3.9	8.8	-0.3	x
> COc1ccc2c3c(n(C)c2c1)[C@@H](CO)N(C(=O)Nc1ccc(F)cc1)CC31CN(S(=O)(=O)c2cn(C)cn2)C1
 : -9.9	-8.0	-3.6	x
> C[C@@H]1CN([C@@H](C)CO)C(=O)c2cc(-c3cccnc3)cnc2O[C@H]1CN(C)Cc1ccccc1
 : -1.6	6.2	0.9	x
> OC[C@@H]1[C@@H](c2ccc(-c3ccccc3F)cc2)[C@@H]2CN(Cc3ccncc3)CCCCN12
 : 2.5	-10.3	4.9	x
> CNC[C@H]1OCCCC[C@@H](C)Oc2ccc(N)cc2C(=O)N([C@H](C)CO)C[C@H]1C
 : 2.9	0.3	-1.9	x
> CCCNC(=O)Nc1ccc2c(c1)C(=O)N(C)C[C@H](OC)[C@H](C)CN(Cc1ccncc1)[C@H](C)CO2
 : 1.7	6.4	-1.6	x
> CNC[C@H]1Oc2c(NS(C)(=O)=O)cccc2C(=O)N(C)C[C@@H]1C
 : 2.2	10.1	-0.8	x
> CCCC#Cc1cnc2c(c1)C(=O)N([C@H](C)CO)C[C@H](C)[C@H](CN(C)C(=O)CN1CCOCC1)O2
 : 5.8	3.7	0.3	x
> C[C@@H]1CCCCO[C@H](CN(C)C)[C@H](C)CN([C@@H](C)CO)C(=O)c2cc(NC(=O)NC3CCCCC3)ccc2O1
 : 3.0	-0.8	-1.3	x
> CO[C@H]1CN(C)C(=O)c2cc(NC(=O)Nc3cccc(Cl)c3)ccc2OC[C@@H](C)N(C(=O)Nc2c(C)noc2C)C[C@@H]1C
 : -4.8	-10.4	1.7	x
> CCC(=O)N1[C@H](CN(C)C(C)=O)[C@@H](c2ccc(-c3ccc(F)cc3)cc2)[C@@H]1CO
 : -2.9	-1.9	1.7	x
> C[C@H]1CN([C@@H](C)CO)C(=O)Cc2cc(NS(=O)(=O)c3ccccc3)ccc2O[C@@H]1CN(C)C(=O)Nc1ccc2c(c1)OCO2
 : -6.6	-0.6	-4.1	x
> COCC(=O)Nc1ccc2c(c1)C(=O)N(C)C[C@@H](OC)[C@H](C)CN(C(=O)CN1CCOCC1)[C@H](C)CO2
 : 4.1	7.4	-1.6	x
> O=C1CN(S(=O)(=O)Cc2ccccc2)C[C@H]2[C@@H](c3ccc(C#Cc4ccc(F)cc4)cc3)[C@H](CO)N12
 : -1.1	-20.5	24.9	x
> CC(C)[C@H]1C(=O)N[C@@H](c2ccc(F)cc2)CC=CC[C@H](C)Oc2ccccc2C(=O)N1C (mixture of isomers)
 : -2.1	8.6	-2.0	x
> C[C@H](CO)N1C[C@H](C)[C@H](CN(C)S(=O)(=O)c2ccc(F)cc2)Oc2ncc(-c3ccc(F)cc3)cc2C1=O
 : -4.5	-9.3	2.0	x
> C[C@@H]1CN(C)C(=O)c2cccc(N(C)C)c2O[C@H]1CN(C)C
 : 3.0	-2.6	-0.8	x
> CC(=O)Nc1cccc2c1O[C@@H](CN(C)C(C)=O)[C@@H](C)CN(C)C2=O
 : -0.3	2.5	-0.4	x
> COc1ccccc1-c1ccc(C2[C@H]3CNC[C@@H]2N3C(=O)Nc2ccccc2F)cc1 (stereo partly specified)
 : 6.6&8.5	2.8&15.4	1.3&2.5	x
> OC[C@@H]1[C@@H](c2ccccc2)C2(CN(Cc3cc(F)ccc3F)C2)N1CC1CCCC1
 : -56.3	-77.8	-18.8	x
> O=C(C[C@@H]1CC[C@H](NC(=O)CCN2CCCCC2)[C@@H](CO)O1)Nc1nccs1
 : 1.7	0.2	-0.3	x
> CN(C)C(=O)c1cccc(-c2ccc3c(c2)[C@@H]2[C@@H](CCN2C(=O)c2cnccn2)[C@@H](CO)N3)c1
 : 2.7	20.5	-1.1	x
> C=CCOC(=O)C1=CC(c2ccc(C(F)(F)F)cc2)CC(OCCCCO)O1 (stereo unspecified)
 : x	x	x	0.69&0.688
> O=C(Cn1cc(C=NO)c2ccccc21)N1CCOCC1
 : x	x	x	0.707
> O=C(NN=Cc1ccc(N2CCOCC2)s1)c1ccc(NS(=O)(=O)c2cccs2)cc1
 : x	x	x	0.679
> Cc1ccc(NS(=O)(=O)c2ccc(NN=Cc3ccncc3)c([N+](=O)[O-])c2)c(C)c1
 : x	x	x	0.736
> Cc1ccc(C(=O)Nc2cccc(C(=O)NN=Cc3ccccc3F)c2)cc1
 : x	x	x	0.675

# Next section:
# Second line of a record: Ecoli rRNA inh	Ecoli rRNA inh OD600	Ecoli rRNA inh RFP	E coli growth
> O=C(NN=C1CCc2ccccc21)c1ccc(O)cc1
 : x	x	x	0.631
> CCCOc1ccc(CCC(=O)NN=Cc2ccco2)cc1
 : x	x	x	0.647
> CC1=C(C(=O)Nc2ccccc2)C(c2ccc(C)o2)n2c(sc(=Cc3ccco3)c2=O)=N1 (stereo unspecified)
 : x	x	x	0.755
> O=C(CC(=O)NN=Cc1c(F)cccc1Cl)NCCc1ccccc1
 : x	x	x	0.654
> O=C(NN=Cc1cccc([N+](=O)[O-])c1)C1CC(=O)N(c2ccc(Br)cc2)C1 (stereo unspecified)
 : x	x	x	0.617

# In a second layout: results already given
molecule	Ecoli rRNA inh	Ecoli rRNA inh OD600	Ecoli rRNA inh RFP	E coli growth
CCCOc1ccc(CCC(=O)NN=Cc2ccco2)cc1	x	x	x	0.647
CC1=C(C(=O)Nc2ccccc2)C(c2ccc(C)o2)n2c(sc(=Cc3ccco3)c2=O)=N1 (stereo unspecified)	x	x	x	0.755
O=C(CC(=O)NN=Cc1c(F)cccc1Cl)NCCc1ccccc1	x	x	x	0.654
O=C(NN=Cc1cccc([N+](=O)[O-])c1)C1CC(=O)N(c2ccc(Br)cc2)C1 (stereo unspecified)	x	x	x	0.617
